Rango-impB inh = inhibitors of Rango-importin beta complex formation; Rango CFP/YFP FRET sensor + importin beta, 45 min; Q14974; Potency, µM (series often up to 92.2 µM), inactives show top-dose inhibition of complex formation; 0.031% of 340,000 active; active = rising FRET ratio curve, often small or poorly fitted; inconclusive = mostly compound fluorescence or quenching in the first reads; inactive = flat curves in all reads;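 note: potency is the fitted concentration of half-maximal effect; 0% = DMSO wells and 100% = buffer wells lacking importin beta; nearly all actives have a fitted effect of over 15% in size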
Target sequence (Q14974 whole entry, looked up): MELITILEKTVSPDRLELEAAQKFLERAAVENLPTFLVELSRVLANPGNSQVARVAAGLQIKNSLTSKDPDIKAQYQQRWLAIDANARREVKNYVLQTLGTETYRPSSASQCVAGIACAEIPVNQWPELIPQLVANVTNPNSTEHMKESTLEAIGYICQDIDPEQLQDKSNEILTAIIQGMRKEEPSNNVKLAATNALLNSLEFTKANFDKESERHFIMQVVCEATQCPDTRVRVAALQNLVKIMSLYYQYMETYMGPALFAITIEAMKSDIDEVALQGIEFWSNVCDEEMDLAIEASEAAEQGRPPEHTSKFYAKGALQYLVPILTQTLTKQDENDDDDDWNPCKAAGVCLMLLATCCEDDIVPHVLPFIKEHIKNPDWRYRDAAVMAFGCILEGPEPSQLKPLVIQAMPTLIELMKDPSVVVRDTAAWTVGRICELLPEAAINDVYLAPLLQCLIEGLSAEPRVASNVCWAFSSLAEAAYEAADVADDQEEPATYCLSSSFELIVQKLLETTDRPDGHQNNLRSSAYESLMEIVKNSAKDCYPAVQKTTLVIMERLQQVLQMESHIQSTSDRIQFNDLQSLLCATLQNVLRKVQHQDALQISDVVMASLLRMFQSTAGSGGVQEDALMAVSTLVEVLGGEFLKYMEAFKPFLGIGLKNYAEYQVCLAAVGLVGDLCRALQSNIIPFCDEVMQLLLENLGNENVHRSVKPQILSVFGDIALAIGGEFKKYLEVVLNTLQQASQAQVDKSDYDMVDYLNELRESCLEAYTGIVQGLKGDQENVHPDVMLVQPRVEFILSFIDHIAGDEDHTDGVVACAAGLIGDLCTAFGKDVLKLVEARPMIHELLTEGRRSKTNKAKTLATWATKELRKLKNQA
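FRET biosensor (snurportin 1 IBB flanked by EYFP and cerulean), 50 nM, with compound 5 min, then 0.125 microM importin beta in PBS, 1 mM DTT, 0.02% Tween-20, 0.1% BSA. CFP/YFP ratio read after 45 min at room temperature; pre-read flags interference.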
miR-21 reporter = raises the signal of a miR-21 reporter; HeLa miR-21 FLuc reporter, luciferase, 48 h; Potency, µM (highest dose often 38.3 µM), for the others: at the top dose reporter change, positive = more light; 340,000 tested, under 10 active; active = well fitted rising curve with a large enough effect; inconclusive = small, poorly fitted or top-dose-only effect; inactive = no such curve, though single readings can be large or run the other way;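 note: % of control where 0% means no effect; miR-21 action dims this reporter so a rising signal means less miR-21 action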
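HeLa cells stably expressing CMV-driven firefly luciferase with a downstream miR-21 binding sequence, endogenously expressing miR-21, were treated with titrations (up to about 40uM final) for 48 hours at 37 degree Celsius. Luciferase luminescence was read after lysis.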
Rango release inh = inhibition of RanGTP-driven Rango-importin beta dissociation; Biochemical FRET Rango-importin beta, RanGTP-induced dissociation; O95149+P62826; AID 540253; Potency, µM (titrated, usually from 46.1 µM), for inactives: top-dose activity change, negative = inhibition; 0.071% of 340,000 active; active means falling FRET ratio curve, often poorly fitted, with flat reads before Ran was added; inconclusive means other falling curves, or compound fluorescence or quenching; inactive means flat or rising ratio curve;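 note: potency is the fitted concentration of half-maximal effect; % of control where 0% means no effect; nearly all actives have a fitted effect of over 45% in size; -100% = wells without RanGTP and RCC1; the record marks most hits as doubtful in a second field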
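Recombinant Rango FRET biosensor (EYFP–snurportin 1 IBB–cerulean CFP10) at 0.1 uM premixed with 0.25 uM importin beta in PBS, 1 mM DTT, 0.02% Tween-20, 0.1% BSA. Compound added 5 min; RanGTP-RCC1 (0.6 uM Ran, 2 mM GTP, 0.2 uM RCC1) then triggers release, read at 45 min.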
GLA inh pH 4.5 = blocks human alpha-galactosidase A at pH 4.5; purified enzyme, 4-MU-alpha-Gal fluorescence, pH 4.5; 230,000 tested, under 10 active; activity change, negative = inhibition, % at 105 µM; inconclusive = small, poorly fitted or top-dose-only inhibition, or a rising curve; inactive = flat fitted curve, though single readings scatter; no compound was filed as active;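 note: 0% = full activity with enzyme and -100% = basal without enzyme; dose as in the result columns while the protocol names 77 µM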
Starred values were filed as active, the others as inactive; ? = inconclusive; . = no result given; [ ] = remark or other dose. This is a subset, so the mix of outcomes need not match the whole.

SMILES	Rango-impB inh	miR-21 reporter	Rango release inh	GLA inh pH 4.5
CCC(CC)C(=O)c1c[nH]c(C(=O)N2CCN(c3ccccc3)CC2)c1	-0.1%	-2%	-15%	-2
Cc1ccc(C2C(C#N)=C(N)N(c3ncn[nH]3)C3=C2C(=O)CC(C)(C)C3)cc1 (configuration not stated)	0.0%	-2%	-9%	-1
COc1ccc(NC(=O)CN(C)C(=O)CCNC(=O)c2ccccc2OC)cc1	?	.	0%	.
CCOC(=O)C1(Cc2cccc(OC)c2)CCCN(C(=O)c2cc(C)[nH]n2)C1 (configuration not stated)	5.0%	-4%	8%	3
COc1ccccc1C(=O)NCCC(=O)N(C)CC(=O)Nc1ccc(N2CCOCC2)cc1	2.9%	.	9%	.
Cc1cc(OCC(=O)NNC(=O)c2ccncc2)ccc1C(C)C	-0.3%	.	4%	.
Cc1ccccc1N(C(=O)c1snc(C(N)=O)c1N)C(C)C(=O)NC1CCCCC1 (configuration not stated)	-1.1%	4%	-19%	.
CCOC(=O)c1sc(NC(=O)c2cccc(S(=O)(=O)N(CC)CC)c2)cc1C	0.3%	-27%	0%	8
COc1ccccc1C1CCN(Cc2ccccc2)CC1	-1.7%	-6%	7%	.
COc1cc(OC)c(C2Nc3cccc4cccc(c34)N2)c(OC)c1	3.8%	24%	-9%	.
CC(Sc1n[nH]c(N)n1)C(=O)C12CC3CC(CC(C3)C1)C2 (configuration not stated)	2.4%	-10%	-7%	10
Cc1cc(Nc2cccc(F)c2)nc(N2CCOCC2)n1	-3.1%	-12%	-3%	-5
O=c1ccc(/C=C/c2ccccc2)nn1Cc1ccccc1Cl	-2.9%	-2%	1%	5
COc1ccc(-n2c(SCC(=O)Nc3cc(C)on3)nc3ccc(O)cc3c2=O)cc1OC	-2.1%	-8%	28%	-8
CCN(CC(=O)Nc1c(F)cccc1F)C(=O)c1cccc(S(=O)(=O)NCc2ccccc2)c1	-5.2%	.	10%	.
CCN(CC)C(=O)COc1cccc2ccccc12	-0.7%	-20%	18%	0
CN(C)CC1(C)Cc2ccsc2C1O (configuration not stated)	-1.1%	.	23%	.
COc1ccc(C(=O)NCc2nnc(SCC(=O)Nc3nnc(C)s3)o2)cc1	?	-7%	-4%	6
Cc1ccc2c(c1)N(CCC(=O)NCC1COc3ccccc3O1)C(=O)CO2 (configuration not stated)	1.1%	0%	14%	-8
O=C(Nc1nccs1)c1ccc(-c2ccc(Cl)cc2Cl)o1	0.9%	-41%	0%	-11
CCCCCCCSc1nnc(N)s1	-0.2%	-16%	10%	-6
O=[N+]([O-])c1ccc(C2CCCC/C2=N/O)c([N+](=O)[O-])c1 (configuration not stated)	-2.2%	0%	1%	.
COc1cc(OCC(N)=O)cc(OC)c1OC	2.9%	-3%	-6%	8
CC(C)OC(=O)CSc1nc(C(C)C)nc2ccccc12	-2.4%	0%	15%	21

Not a retest: an excerpt of the list.
SMILES	Rango-impB inh	miR-21 reporter	Rango release inh	GLA inh pH 4.5
COc1ccc(C(=O)NCc2nnc(SCC(=O)Nc3nnc(C)s3)o2)cc1	?	-7%	-4%	6
Cc1ccc2c(c1)N(CCC(=O)NCC1COc3ccccc3O1)C(=O)CO2 (configuration not stated)	1.1%	0%	14%	-8
O=C(Nc1nccs1)c1ccc(-c2ccc(Cl)cc2Cl)o1	0.9%	-41%	0%	-11
CCCCCCCSc1nnc(N)s1	-0.2%	-16%	10%	-6

Remaining list, next part.
SMILES	Rango-impB inh	miR-21 reporter	Rango release inh	GLA inh pH 4.5
COc1ccc(N/C=C(\[N+](=O)[O-])S(=O)(=O)c2ccccc2)cc1	-3.2%	-11%	-8%	.
Nc1cc(=O)[nH]c(SCc2cccc(Cl)c2)n1	4.3%	-7%	37%	11
CSc1nc(Cl)cc(Nc2ccc(O)cc2)n1	-0.2%	-33%	-9%	-6
Cc1sc2ncn(CC(=O)NCC(=O)N(C)Cc3ccccc3)c(=O)c2c1C	-1.8%	-3%	1%	-1
COc1ccc(NC(C)=O)cc1CNC(=O)COc1ccccc1C(=O)Nc1cccc(C)c1C	-2.3%	-2%	-13%	.
CCOc1ccc(NC(=O)CN2CCN(c3ccc(F)cc3)CC2)cc1	0.3%	-21%	-11%	.
CCOC(=O)c1sc(NC(=O)C2CC(=O)N(c3ccc(C)cc3)C2)nc1C (configuration not stated)	-2.8%	10%	4%	.
Cc1c(C)n(Cc2ccccc2)c2ncnc(Cl)c12	-1.1%	16%	2%	.
CCCNC(=O)C1CCN(c2ccc(S(=O)(=O)N3CCOCC3)cc2Cl)CC1	0.3%	-2%	0%	5
C=CCn1c(SCc2c(C)noc2C)nc2sc3c(c2c1=O)CCCC3	1.3%	-3%	2%	20
CSc1ccccc1NC(=S)N/N=C/c1cccn1Cc1cccc(C)c1	-3.6%	14%	0%	-1[21.1 µM]
CN(CC(=O)NC(=O)NCc1ccccc1)CC(=O)Nc1ccc(Cl)c(C(F)(F)F)c1	-0.7%	.	4%	.
Cc1sc2ncn(CC(=O)NCCCC(=O)N3CCN(c4ncccn4)CC3)c(=O)c2c1C	-0.2%	-1%	29%	-6
CCOC(=O)c1sc2nc(C)[nH]c(=S)c2c1C	?	-5%	-9%	1
CC(=O)Nc1ccc(C2=CC(=O)CC(C)(C)C2)cc1	2.4%	.	-5%	.
O=C(NCc1ccccc1)NC1(C(=O)Nc2ccc3c(c2)OCCO3)CCCCC1	2.3%	-9%	-22%	3
CCOC(=O)c1c(NC(=O)C2(C)Cc3ccccc3C(=O)O2)sc2c1CCCC2 (configuration not stated)	3.3%	3%	-3%	8
Cc1ccc(C(=O)Oc2ccccc2N2CCOCC2)cc1	1.1%	-1%	0%	0
Cc1ccc(-c2noc(CSc3nnc(Cc4cccs4)n3-c3ccccc3)n2)cc1	0.9%	0%	-1%	-12
FC(F)Oc1ccc(/C=N/n2c(Cc3ccc(Br)cc3)n[nH]c2=S)cc1	0.1%	-13%	-11%	.
CC(=O)Oc1ccc(/C=C2\C=C(c3ccc(C)cc3)OC2=O)cc1	0.8%	-1%	-3%	.
O=C(Nc1cc(S(=O)(=O)N2CCCCC2)ccc1Cl)c1ccncc1	2.7%	.	0%	.
O=C(CSc1n[nH]c(-c2ccccc2)n1)N1CCOCC1	2.4%	-33%	12%	.
O=C(Cc1c(C(=O)O)[nH]c2ccc(Cl)cc12)Nc1ccc2c(c1)OCCO2	-2.7%	-2%	1%	-3

Reprinted at random: 3 entries already listed.
SMILES	Rango-impB inh	miR-21 reporter	Rango release inh	GLA inh pH 4.5
CCN(CC(=O)Nc1c(F)cccc1F)C(=O)c1cccc(S(=O)(=O)NCc2ccccc2)c1	-5.2%	.	10%	.
CCOC(=O)c1sc(NC(=O)c2cccc(S(=O)(=O)N(CC)CC)c2)cc1C	0.3%	-27%	0%	8
CC(C)OC(=O)CSc1nc(C(C)C)nc2ccccc12	-2.4%	0%	15%	21

(list continues)
SMILES	Rango-impB inh	miR-21 reporter	Rango release inh	GLA inh pH 4.5
O=S(=O)(c1ccc(F)cc1)N1CCN(S(=O)(=O)c2cc(F)ccc2F)CC1	4.1%	-9%	-1%	.
CCCNC(=O)c1ccccc1NC(=O)C1COc2ccccc2O1 (configuration not stated)	0.1%	-1%	12%	-17
Nc1nc(-c2cccnc2)nn1C(=O)c1ccc(Cl)cc1	-1.0%	-5%	7%	-3
O=C(Cc1ccccc1)c1c[nH]c(C(=O)O)c1	2.4%	-1%	3%	9
CC1CCN(CCc2nc3cc(NC(=O)COc4ccccc4)ccc3n2C)CC1	-0.2%	-8%	0%	.
Cc1c(C)c2ccc(OCC(=O)N3CCN(C(=O)C4COc5ccccc5O4)CC3)cc2oc1=O (configuration not stated)	1.2%	16%	8%	.
O=C(N1CCOCC1)N1CCN(c2nc(-c3ccccc3)cs2)CC1	-2.9%	-32%	1%	1
COCCSc1ccccc1C(=O)Nc1ccc2c(c1)OCO2	-0.4%	-12%	-4%	1
COc1ccc(N2C(=O)C3CCCN3C2c2ccc(C)cc2)cc1Cl (configuration not stated)	-0.3%	-8%	1%	3
COc1ccc(/C=N/NC(=O)C2c3ccccc3Oc3ccccc32)c(OC)c1	-0.6%	-3%	1%	0
CC(=O)c1ccc(N2CCN(C(=O)CCS(=O)(=O)c3ccc(C)cc3)CC2)cc1	-2.6%	2%	41%	-17
Cc1nn(Cc2ccc(Cl)cc2Cl)c(C)c1NC(=O)c1nc2n(n1)C(C(F)F)CC(C)N2 (configuration not stated)	0.9%	-4%	?	-2
Cc1cccc(C)c1NC(=S)N1CCC(c2ccccc2)C1 (configuration not stated)	6.5%	6%	14%	2[21.1 µM]
CC(=O)c1cccc(NC(=S)NC(=O)c2ccccc2Cl)c1	-1.6%	-29%	-5%	-11
COc1cccc(CNC(=O)c2nnn(CC(=O)Nc3ccc4c(c3)OCO4)c2N)c1	0.9%	0%	-5%	4[21.1 µM]
O=C(C[n+]1ccc2c(c1)nnn2-c1ccccc1)c1ccc(Cl)cc1	?	-13%	-7%	-8
Nc1ccccc1N1CCOCC1	-0.5%	-2%	11%	1
COc1cc(NC(=O)N2CCNC2=O)cc(C(=O)Nc2cccc(C(F)(F)F)c2)c1	0.4%	?	-3%	-3
CCOC(=O)CSc1nnc(-c2ccc(S(=O)(=O)N3CCC(C)CC3)cc2)o1	2.9%	-1%	13%	2
COc1c(/C=N/NC(=O)c2ccncc2)c(CCN(C)C(C)=O)cc2c1OCO2	2.6%	-9%	-9%	4
CC1(C)C2CCC13CS(=O)(=O)NC3C2 (configuration not stated)	-0.2%	-3%	0%	8
CCOC(=O)Cc1csc(NC(=O)c2cc3c(s2)CCCC3)n1	?	14%	-27%	-17
c1cncc(-c2nc(-c3ccc4c(c3)OCCO4)cs2)c1	0.0%	-45%	8%	.
Cc1cccc(N2CCN(S(=O)(=O)c3ccc(S(=O)(=O)N4CCCC4)cc3)CC2)c1C	5.3%	-3%	7%	1
COc1cccc(CNC(=O)c2c[nH]n3c(=O)c(Cl)c(C)nc23)c1	-2.7%	3%	2%	1
Cc1ccc(-n2c(O)c(/C=N/c3ncn[nH]3)c3ccccc3c2=O)cc1	?	-2%	?	-21
O=S(=O)(Nc1ccccc1Cl)c1ccc(NS(=O)(=O)c2cccs2)cc1	?	2%	3%	.
O=c1[nH]c2cc3c(cc2cc1CN(Cc1ccc2c(c1)OCO2)Cc1nnnn1CC1CCCO1)OCO3 (configuration not stated)	?	-2%	?	7
C/C(=N\NC(=O)c1cccc(S(=O)(=O)N2CCCC2)c1)c1ccncc1	-2.2%	.	1%	.
Fc1ccc(/C=C/c2nnc(-c3cccs3)o2)cc1	1.2%	-73%	3%	-2
Cc1ccc(S(=O)(=O)Cc2sc3ccccc3[n+]2C)cc1	-0.4%	-18%	2%	-1
Cc1cc(C)n2nc(SCC(=O)N/N=C/c3cccc(Br)c3)nc2n1	-0.4%	-3%	17%	9
CC(COc1ccccc1)OC(=O)Nc1ccccc1 (configuration not stated)	-0.8%	.	7%	.
Cc1ccc(C)c(OCCC(=O)OCc2csc(CC(=O)Nc3ccccc3C)n2)c1	-4.0%	.	-15%	.
Cc1cccc(S(=O)(=O)Nc2ccncc2)c1	1.3%	-3%	4%	.
COc1ccc(CC(=O)Nc2oc(-c3ccccc3)c(-c3ccccc3)c2C#N)cc1OC	0.9%	-1%	-16%	-5
CC(C)c1cc(C(=O)Nc2ccc3c(c2)OCO3)no1	-1.1%	-30%	39%	7
O=C(CN1C(=O)c2ccccc2C1=O)OCC(=O)N1CCc2ccccc2C1	-1.3%	1%	-23%	6
OC(COC(c1ccccc1)c1ccccc1)CN1CCN(c2ccccn2)CC1 (configuration not stated)	-2.8%	-7%	-1%	-13
CCN(C(=O)c1ccc(Br)o1)C1CCS(=O)(=O)C1 (configuration not stated)	-0.5%	.	-4%	.
Cc1ccc(-c2nc3ccccc3s2)cc1NC(=O)c1ccc2c(c1)OCO2	4.9%	1%	-6%	-2
CC1CCCC(C)N1C(=O)CN1C(=O)C(C)(C)Oc2ccc(C(=O)NC3CCCCC3)cc21 (configuration not stated)	-2.5%	2%	17%	10
COc1ccc(S(=O)(=O)NCC2CCC(C(=O)NCc3cccnc3)CC2)cc1 (configuration not stated)	-1.4%	0%	1%	-5
